# LASV entry inh – qHTS for Inhibitors of binding or entry into cells for Lassa Virus | Lassa virus pseudotype entry inhibition, cell reporter; control for the full effect not named in the record | Potency, µM (titrated, usually from 37.9 µM), inactives show at the top dose activity change, negative = inhibition, hits mostly inhibitors | 1.2% of 300,000 active | AID 540256, 2011; active means well fitted inhibition curve with a large enough effect; inconclusive means small, poorly fitted or top-dose-only effect, or effect the other way; inactive means flat fitted curve, though single readings scatter; tested in HEK293 cells; note: % is set by controls: 0 for no effect and ±100 for the full control effect; nearly all actives have a fitted effect of over 50% in size; luciferase read-out
# RE007 growth inh – qHTS Assay for Inhibitors of the HIV-1 protein Vpr; S. pombe RE007 Vpr strain, BacTiter-Glo ATP luminescence, 24 h; control for the full effect not named in the record; Potency, µM (titrated, usually from 92.2 µM), inactives show at the highest dose activity change, negative = less growth; 0.21% of 360,000 active; AID 651644, 2012; active = well fitted falling curve with a large enough effect; inconclusive = small, poorly fitted or top-dose-only effect; inactive = no such curve, though single readings can be large or run the other way;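 note: % is set by controls: 0 for no effect and ±100 for the full control effect; nearly all actives have a fitted effect of over 50% in size; the assay follows cell death caused by Vpr and the record does not say whether a fall means rescue or toxicity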
#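 Fission yeast RE007 carrying one integrated HIV-1 vpr copy, seeded at OD 0.01 in PMG+AL medium with 23 nL pinned compound. Grown 24 h at 30 degrees; viability read by BacTiter-Glo luminescence after 5 min.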
# Cruzain Triton – qHTS Assay for Promiscuous and Specific Inhibitors of Cruzain (with detergent); Cruzipain (Trypanosoma cruzi), P25779; purified cruzain, Z-FR-AMC fluorescence, 0.01% Triton; Potency, µM, inactives show max response, negative = inhibition, hits mostly inhibitors; 0.43% of 200,000 active; AID 1478, 2009; active = well fitted curve in the direction sought with a large enough effect; inconclusive = small, poorly fitted or top-dose-only effect, or another doubt; inactive = no such curve, though single readings can be large; an effect the other way counts as inactive or inconclusive;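 note: plate controls were neutral wells for no effect and buffer without enzyme for full effect; nearly all actives have a fitted effect of over 40% in size; top concentration of the series not given in the record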
# Target sequence (P25779 123-467 limits assumed): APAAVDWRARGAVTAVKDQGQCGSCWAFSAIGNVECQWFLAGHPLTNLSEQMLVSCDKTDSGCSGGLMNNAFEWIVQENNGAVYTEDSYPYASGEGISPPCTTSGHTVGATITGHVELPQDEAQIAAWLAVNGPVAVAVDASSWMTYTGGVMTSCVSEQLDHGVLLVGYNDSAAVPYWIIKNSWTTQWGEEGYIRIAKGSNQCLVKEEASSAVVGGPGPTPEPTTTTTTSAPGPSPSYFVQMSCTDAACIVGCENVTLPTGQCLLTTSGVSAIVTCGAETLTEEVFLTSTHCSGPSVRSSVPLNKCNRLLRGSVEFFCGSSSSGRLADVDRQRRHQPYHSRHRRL
#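 Detergent-containing run (0.01% Triton X-100) in acetate buffer pH 5.5 with 5 mM DTT: enzyme at 1.5 nM final, 15 min compound preincubation at room temperature, then 2 uM Z-FR-AMC substrate. Activity taken as 60 s fluorescence increase at 360/450 nm.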
# 2A StopGo – High Throughput Screening for Foot and Mouth Disease Virus Antivirals | human cells with a luciferase reporter of 2A StopGo recoding; control for the full effect not named in the record | Potency, µM (titrated, usually from 57.9 µM), for inactives: at the top dose signal change, negative = less light | 1.2% of 410,000 active | AID 1159524, 2015; active = well fitted falling curve with a large enough effect; inconclusive = small, poorly fitted or top-dose-only effect; inactive = no such curve, though single readings can be large or run the other way; tested in HEK293T cells; note: % is set by controls: 0 for no effect and ±100 for the full control effect; nearly all actives have a fitted effect of over 45% in size; luciferase light after 4 h
# Cruzain inh noDet – qHTS Assay for Promiscuous and Specific Inhibitors of Cruzain (without detergent) | Cruzipain (Trypanosoma cruzi), P25779 | purified cruzain, Z-FR-AMC fluorescence, no detergent | Potency, µM, inactives show max response, negative = inhibition, hits mostly inhibitors | 2.3% of 200,000 active | AID 1476, 2009; active = well fitted curve in the direction sought with a large enough effect; inconclusive = small, poorly fitted or top-dose-only effect, or another doubt; inactive = no such curve, though single readings can be large; an effect the other way counts as inactive or inconclusive;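 note: plate controls were enzyme without inhibitor for no effect and buffer without enzyme for full effect; nearly all actives have a fitted effect of over 40% in size; top concentration of the series not given in the record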
#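 Detergent-free condition (0.00005% Triton X-100) in acetate buffer pH 5.5 with DTT. 1.5 nM enzyme and compound were pre-mixed 15 min, then 2 uM Z-FR-AMC substrate added; reaction progress from fluorescence change between first and third reads (60 s).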
# SARS PLP yeast – qHTS of Yeast-based Assay for SARS-CoV PLP; Potency, µM (series often up to 32.9 µM), without a hit: at the highest dose activity, positive = growth rescue; S. cerevisiae expressing SARS-CoV PLpro, growth rescue; control for the full effect not named in the record; 0.19% of 330,000 active; note: 0% is about no effect; nearly all actives have a fitted effect of over 55% in size; growth read by luminescence after 48 h
# NS1 function inh – qHTS Assay for Inhibitors of Influenza NS1 Protein Function; S. cerevisiae slowed by influenza A NS1, growth recovery by OD600; 0.4% of 270,000 active; Potency, µM (highest dose often 46.1 µM), for the others: top-dose activity, positive = more growth; note: actives are rising curves; nearly all actives have a fitted effect of over 50% in size
#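 OD600 was taken as the measure of yeast growth restored by compound in an NS1-expressing S. cerevisiae strain. Cells had been washed out of glucose medium and diluted 1:100 into galactose -URA medium, pH 6.0.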
# MARV entry inh – qHTS for inhibitors of binding or entry into cells for Marburg Virus; Marburg virus pseudotyped entry inhibition, cell reporter; control for the full effect not named in the record; about a third of the inactives were read at about 46 µM; Potency, µM (top dose mostly 37.8 µM), for inactives: top-dose activity change, negative = inhibition, actives largely listed as inhibitors; 1.8% of 300,000 active; AID 540276, 2011; active = well fitted inhibition curve with a large enough effect; inconclusive = small, poorly fitted or top-dose-only effect, or effect the other way; inactive = flat fitted curve, though single readings scatter; tested in HEK293 cells; about a fifth of its hits are not listed in these tables; note: % is set by controls: 0 for no effect and ±100 for the full control effect; luciferase read-out
# The depositor's hits bear a star; ? = inconclusive; / = no result given; & = joins results of further samples; [ ] = dose if it differs, or a comment. Unless noted, calls come from the whole dose curve; as a rule, active means well fitted rising curve with a large enough effect; inconclusive means small, poorly fitted or top-dose-only effect; inactive means no such curve, though single readings can be large or run the other way. Potency is the fitted concentration of half-maximal effect.
# Below each compound – LASV entry inh	RE007 growth inh	Cruzain Triton	2A StopGo	Cruzain inh noDet	SARS PLP yeast	NS1 function inh	MARV entry inh
- Cc1nnc(SC(C)C(=O)NCC2CCCO2)s1 (stereo not given)
 : 8%	18%	/	-4%	/	-2%	/	-3%
- COc1cccc(CNc2ncn[nH]2)c1OCc1ccc(F)cc1
 : ?	6%	/	-23%	/	0%	9%	-4%[46.1 µM]
- Cc1ccc(OCC(=O)NC(=S)Nc2cccc(NC(=O)c3ccccc3)c2)cc1
 : -26%	-14%	-17%	-24%	?	-8%	12%	?
- CCc1nnc(NC(=O)c2ccc3c(c2)C(=O)N(CC(C)C)C3=O)s1
 : /	/	1.0%	/	?	7%	15%	/
- CC(C)N(C(=S)Nc1cc(S(=O)(=O)N2CCOCC2)ccc1Cl)c1ccccc1
 : 0%	-1%	1.1%	-2%	0%	28%	9%	?
- COC(=O)c1cnn(-c2nc(-c3ccccc3)cs2)c1N
 : ?	2%	/	38%[activator]	/	-2%	0%	?
- CCN(CC)S(=O)(=O)c1ccc(N2CCCC2)c(C(=O)OCC(=O)N2CCCC2)c1
 : 1%	-7%	/	24%	/	0%	/	?
- O=S(=O)(c1ccc2c(c1)N(Cc1ccc(Cl)cc1)C1CCCN21)N1CCOCC1 (stereo not given)
 : -7%	1%	-5.8%	0%	-12%	-2%	-11%	?
- O=C(c1cccs1)N1CCN(S(=O)(=O)N2CCCCC2)CC1
 : 12%	-13%	2.9%	-19%	9%	-4%	-5%	?
- COc1ccc(-c2nc3sc(CCNC(=O)C(=O)Nc4cc(C)cc(C)c4)c(C)n3n2)cc1
 : 19%[46.1 µM]	/	-0.8%	13%	-5%	/	/	/
- CCCN1C(=O)C2C(C(=O)Nc3cccc(OC)c3)C3C=CC2(O3)C1C(=O)NC1CCCCC1 (stereo not given)
 : 12%	-15%	-1.9%	14%	0%	-5%	-4%	-4%
- Cc1ccc2c(c1)C1CN(C)CCC1N2C(=O)Cn1nnc(-c2ccccc2F)n1 (stereo not given)
 : /	-10%	-10%	-27%	2%	8%	-2%	-5%
- COC(=O)c1ccc(N2C(=O)Cc3cc(OC)c(OC)cc3C2c2ccc(F)cc2)cc1 (stereo not given)
 : -26%[46.1 µM]	/	-7.5%	-4%	?	/	/	-12%[46.1 µM]
- O=C(Nc1ccc(Cl)cc1C(=O)O)c1ccc2c(c1)C(=O)N(Cc1ccco1)C2=O
 : -13%	8%	?	-4%	?	-1%	-34%	-3%&-3%&-3%
- O=S(=O)(NCCSc1ccc(Cl)cc1)c1ccc2c(c1)OCCO2
 : ?	-5%	-4.2%	28%	10%	-15%	-85%	-6%

# Of the compounds above, 6 contain nitrogen in an aromatic ring:
# Below each compound – LASV entry inh	RE007 growth inh	Cruzain Triton	2A StopGo	Cruzain inh noDet	SARS PLP yeast	NS1 function inh	MARV entry inh
- Cc1nnc(SC(C)C(=O)NCC2CCCO2)s1 (stereo not given)
 : 8%	18%	/	-4%	/	-2%	/	-3%
- COc1cccc(CNc2ncn[nH]2)c1OCc1ccc(F)cc1
 : ?	6%	/	-23%	/	0%	9%	-4%[46.1 µM]
- CCc1nnc(NC(=O)c2ccc3c(c2)C(=O)N(CC(C)C)C3=O)s1
 : /	/	1.0%	/	?	7%	15%	/
- COC(=O)c1cnn(-c2nc(-c3ccccc3)cs2)c1N
 : ?	2%	/	38%[activator]	/	-2%	0%	?
- COc1ccc(-c2nc3sc(CCNC(=O)C(=O)Nc4cc(C)cc(C)c4)c(C)n3n2)cc1
 : 19%[46.1 µM]	/	-0.8%	13%	-5%	/	/	/
- Cc1ccc2c(c1)C1CN(C)CCC1N2C(=O)Cn1nnc(-c2ccccc2F)n1 (stereo not given)
 : /	-10%	-10%	-27%	2%	8%	-2%	-5%

# More results.
# Below each compound – LASV entry inh	RE007 growth inh	Cruzain Triton	2A StopGo	Cruzain inh noDet	SARS PLP yeast	NS1 function inh	MARV entry inh
- COc1ccc(C(=O)Nc2cc(C)nn2-c2cccc(F)c2)cc1
 : -17%[46.1 µM]	2%	/	29%	/	1%	2%	-12%[46.1 µM]
- COc1nc(NC(C)(C)C)nc(Oc2ccc(=O)n(C)n2)n1
 : /	-4%	-0.6%	-25%	-8%	-8%	5%	/
- CCc1ccccc1NC(=O)C1CCCN(C(=O)c2cnn(-c3ccccc3)c2-n2cccc2)C1 (stereo not given)
 : -11%[46.1 µM]	/	-4.2%	1%	?	/	/	?
- COC(=O)c1sccc1NC(=O)c1ccccc1F
 : 1%[46.1 µM]	-17%	/	-4%	/	-1%	-12%	0%[46.1 µM]
- CCn1c(=O)sc2cc(NC(=O)c3cccc(OC)c3)ccc21
 : -5%[46.1 µM]	/	-4.1%	21%	-3%	/	/	8%[46.1 µM]
- COC(=O)c1csc(S(=O)(=O)N2CCOCC2)c1OC
 : 29%[46.1 µM]	1%	/	2%	/	23%	-18%	-6%[46.1 µM]
- CCc1cccc2c(/C=N/NC(=O)c3cccc(S(=O)(=O)Nc4ccccc4Cl)c3)c[nH]c12
 : -20%	9%	-5.9%	?	4%	-8%	?	4%
- CN(Cc1ccco1)C(=O)Cn1ncc2c([nH]c3ccccc32)c1=O
 : /	-15%	/	-27%	/	5%	-3%	/
- C=C(C)Cn1c(SCC(=O)N/N=C/c2ccccc2OCC(=O)O)nnc1-c1ccc(Br)cc1
 : /	3%	/	-7%	/	0%	?	/
- CCOC(=O)Cc1csc(NC(=S)NC(=O)c2ccccc2Br)n1
 : 3%	-13%	-7.9%	-16%	?	/	-21%	?
- Cc1ccn2c(NC(C)(C)C)c(-c3cccs3)nc2c1
 : 7%	-10%	/	?	/	0%	-4%	/
- Cc1ccc(NC(=O)CSc2nnc(-c3ccc(S(=O)(=O)N4CCCC4)cc3)o2)cc1C
 : -2%	-1%	2.1%	-23%	-9%	11%	-3%	-8%
- Cc1cnc(C(=O)OCC(=O)c2c(N)n(CC(C)C)c(=O)n(C)c2=O)cn1
 : -7%	-14%	/	-21%	/	-6%	/	-2%
- CCC(C(=O)NCc1ccccc1)n1nc(C)c2sc3ccccc3c2c1=O (stereo not given)
 : 13%[46.1 µM]	/	-3.4%	-21%	0%	/	/	26%[46.1 µM]
- O=C(CCNS(=O)(=O)c1ccc(Cl)cc1)OCC(=O)N1CCN(C(=O)c2ccco2)CC1
 : 2%	-4%	/	-9%	/	-2%	/	-3%
- O=C(CSc1oc(-c2ccco2)nc1S(=O)(=O)c1ccc(Cl)cc1)Nc1ccc(F)cc1
 : -12%[46.1 µM]	/	-14%	-24%	-14%	/	/	0%[46.1 µM]
- COc1ccccc1C(=O)N1c2ccccc2C(C)(c2ccc(Cl)cc2)CC1(C)C (stereo not given)
 : ?	/	-7.1%	?	-25%	/	/	/
- CCOCCCNC(=O)c1cc(C)nn1-c1ccccc1
 : /	1%	-7.1%	-12%	22%	6%	-7%	/
- Cc1ccc(NC(=O)CCN2C(=O)NC3(CCCC3)C2=O)cc1
 : -7%	0%	/	4%	/	-2%	/	15%[46.1 µM]
- COCCOC(=O)C1=C(C)OC(N)=C(C#N)C1c1ccc2c(c1)OCO2 (stereo not given)
 : -9%	-22%	-4.0%	0%	-23%	5%	2%	15%
- Cc1ccn2c(C(=O)NN=C3CCCCCCC3)c(C)nc2c1
 : -2%	9%	/	-11%	/	0%	2%	-7%
- COc1ccccc1CC(=O)Nc1cccc(C(=O)Nc2nccs2)c1
 : /	-6%	/	-15%	/	0%	3%	/
- COc1cc(S(=O)(=O)N2CCC(C(N)=O)CC2)c(C)cc1C
 : 27%	0%	2.7%	/	9%	2%	-1%	17%
- NNC(=O)c1ccc(Oc2cc(Cl)cc(Cl)c2)o1
 : /	12%	/	0%	/	-1%	3%	/
- Cc1ccc(C(=O)N2CCN(c3ccc(NC(=O)Cc4ccccc4)cc3)CC2)cc1
 : -13%	0%	/	-29%	/	-5%	13%	-7%
- CCn1c(=O)c2sccc2n2c(CCC(=O)N3CCN(c4ccc(C(C)=O)cc4)CC3)nnc12
 : -3%[46.1 µM]	/	-2.0%	-5%	-7%	/	/	3%[46.1 µM]
- CCOc1ccc(C2c3[nH]c4ccccc4c3CCN2C(=O)CCC2CCCC2)cc1 (stereo not given)
 : ?	/	3.1%	-6%	?	/	/	/
- CC1=CC(C)(C)Nc2ccc(Cc3ccc4c(c3)C(C)=CC(C)(C)N4)cc21
 : /	-5%	/	14%	/	-3%	?	/
- CSc1ncc(C(=O)Nc2cccc(C)c2C)c(C)n1
 : /	11%	/	-27%	/	-1%	-1%	/
- COc1ccc(NC(=O)C2C3C=CC(C3)C2C(=O)O)cc1 (stereo not given)
 : /	-1%	/	-23%	/	0%	8%	/
- CC1=Nc2cc(C(=O)NCCCN3CCN(C)CC3)ccc2Sc2ccc(C)cc21
 : /	-1%	/	2%	/	5%	7%	/
- CCN(CC)S(=O)(=O)c1ccc(N(C)C)c(NC(=O)C2CCCC2)c1
 : /	6%	/	6%	/	4%	7%	/
- CCOC(=O)C1=C(COC(=O)c2cccc(NC(C)=O)c2)NC(=O)NC1C (stereo not given)
 : 7%	-4%	/	-45%	/	-1%	/	-5%
- CC(C)C[C@H](NC(=O)N1CCCCCC1)C(=O)O
 : /	-6%	/	-7%	/	-1%	2%	/
- COc1ccc(S(=O)(=O)N2CCN(C(=O)NC3CCCCC3)CC2)cc1OC
 : 30%[14.3 µM]	11%	2.6%	6%	3%	3%	-6%	3%
- CN(C(=S)NC(=O)CCCOc1ccc(Cl)cc1Cl)c1ccccc1
 : -9%	1%	-3.9%	/	6%	-18%	-96%	-13%
- CC(C)(C)NC(=O)CN(C(=O)C(=O)Nc1ccc2c(c1)OCCO2)C1CCCC1
 : -1%	-3%	/	40%[activator]	/	-2%	11%	3%[46.1 µM]
